Screening results: PubChem BioAssay, National Center for Advancing Translational Sciences (NCATS)
GLA inh pH 4.5: alpha-galactosidase A (human) inhibition, pH 4.5; P06280; activity change, negative = inhibition, % at 105 µM; AID 1467; purified enzyme, 4-MU-alpha-Gal fluorescence, pH 4.5; 230,000 tested, under 10 active; inconclusive = small, poorly fitted or top-dose-only inhibition, or a rising curve; inactive = flat fitted curve, though single readings scatter; no compound was filed as active;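 further: 0% = full activity with enzyme and -100% = basal without enzyme; dose as in the result columns while the protocol names 77 µM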
miR-21 reporter: miR-21 reporter, rising signal | HeLa miR-21 FLuc reporter, luciferase, 48 h | Potency, µM (titrated, usually from 38.3 µM), without a hit: at the top dose reporter change, positive = more light | 340,000 tested, under 10 active; active = well fitted rising curve with a large enough effect; inconclusive = small, poorly fitted or top-dose-only effect; inactive = no such curve, though single readings can be large or run the other way;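 further: % of control where 0% means no effect; miR-21 action dims this reporter so a rising signal means less miR-21 action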
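Luminescence from a firefly luciferase reporter carrying a miR-21 binding site downstream, stably expressed under a CMV promoter in HeLa cells that make miR-21 endogenously, reports miRNA modulation after 48 h compound exposure up to approximately 40uM final.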
Rango release inh: inhibitors of RanGTP-induced Rango-importin beta complex dissociation. O95149+P62826. Biochemical FRET Rango-importin beta, RanGTP-induced dissociation. Potency, µM (titrated, usually from 46.1 µM), for inactives: at the highest dose activity change, negative = inhibition. hit rate 0.071% among 340,000. AID 540253; active means falling FRET ratio curve, often poorly fitted, with flat reads before Ran was added; inconclusive means other falling curves, or compound fluorescence or quenching; inactive means flat or rising ratio curve;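 further: potency means the concentration at half of the fitted maximal effect; % of control where 0% means no effect; nearly all actives have a fitted effect of over 45% in size; -100% = wells without RanGTP and RCC1; the record marks most hits as doubtful in a second field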
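Quantitative HTS using a FRET biosensor: 0.1 uM Rango, 0.25 uM importin beta, 0.6 uM Ran, 2 mM GTP, 0.2 uM RCC1 final, PBS with DTT, Tween-20 and BSA. Post-read taken 45 min after Ran addition.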
Rango-impB inh: prevents formation of the Rango-importin beta complex; Q14974; Rango CFP/YFP FRET sensor + importin beta, 45 min; Potency, µM (highest dose often 92.2 µM), without a hit: at the top dose inhibition of complex formation; hit rate 0.031% among 340,000; active = rising FRET ratio curve, often small or poorly fitted; inconclusive = mostly compound fluorescence or quenching in the first reads; inactive = flat curves in all reads;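 further: potency means the concentration at half of the fitted maximal effect; 0% = DMSO wells and 100% = buffer wells lacking importin beta; nearly all actives have a fitted effect of over 15% in size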
Target sequence (Q14974 whole entry, looked up): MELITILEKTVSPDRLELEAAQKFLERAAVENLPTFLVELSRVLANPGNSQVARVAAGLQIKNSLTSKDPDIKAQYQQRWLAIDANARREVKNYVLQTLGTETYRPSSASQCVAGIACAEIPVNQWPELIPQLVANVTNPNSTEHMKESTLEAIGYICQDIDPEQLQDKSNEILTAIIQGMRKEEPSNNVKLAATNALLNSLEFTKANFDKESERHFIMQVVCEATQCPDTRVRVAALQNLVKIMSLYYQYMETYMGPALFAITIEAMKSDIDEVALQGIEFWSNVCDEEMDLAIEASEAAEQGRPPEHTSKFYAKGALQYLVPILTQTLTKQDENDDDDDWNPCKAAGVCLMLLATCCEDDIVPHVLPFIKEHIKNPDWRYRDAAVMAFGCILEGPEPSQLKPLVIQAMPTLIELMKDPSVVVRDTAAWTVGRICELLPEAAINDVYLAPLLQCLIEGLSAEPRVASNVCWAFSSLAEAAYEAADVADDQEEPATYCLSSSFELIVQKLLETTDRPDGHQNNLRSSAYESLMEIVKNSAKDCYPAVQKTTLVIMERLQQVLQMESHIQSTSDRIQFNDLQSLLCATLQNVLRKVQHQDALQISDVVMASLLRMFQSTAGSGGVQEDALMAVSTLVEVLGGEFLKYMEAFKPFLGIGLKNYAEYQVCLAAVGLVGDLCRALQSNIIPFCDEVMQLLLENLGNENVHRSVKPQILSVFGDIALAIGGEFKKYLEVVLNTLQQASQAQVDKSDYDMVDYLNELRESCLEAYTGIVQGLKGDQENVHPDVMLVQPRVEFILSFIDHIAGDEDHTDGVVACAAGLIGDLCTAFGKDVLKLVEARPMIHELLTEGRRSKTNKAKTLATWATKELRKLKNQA
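Inhibition scored from the CFP 486 nm/YFP 530 nm FRET ratio 45 min after adding 0.125 microM importin beta to 50 nM Rango biosensor preincubated 5 min with compound (room temperature, PBS with DTT, Tween-20, BSA). No-importin wells as positive control.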
* hit, by the source's call; u = inconclusive; x = not tested or not shown; & = joins results of further samples. An excerpt (hit frequency here may not be typical).

SMILES	GLA inh pH 4.5	miR-21 reporter	Rango release inh	Rango-impB inh
S=C(NCCCN1CCOCC1)N1CCOCC1	1.9	-1.4%	-2.0%	-3.7%
Cc1ccccc1NC(=O)CSc1nnc(CNC(=O)c2ccc3c(c2)OCO3)n1C	x	3.4%	2.8%	-0.7%
CS(=O)(=O)NCCCNc1ccc(Cl)cc1[N+](=O)[O-]	-6.3	-20.6%	-8.7%	6.4%
CN(C)n1cccc1/C=C(\C#N)S(=O)(=O)c1ccc(Cl)cc1	-0.7	0.8%	4.1%	1.3%
CCc1nnc(NC(=O)CSc2nnc(-c3ccc(OC)cc3)n2C)s1	7.6	-4.1%	-0.4%	5.6%
CCN(c1ccccc1)S(=O)(=O)c1ccc(C(=O)NNC(=O)c2ccccc2F)cc1	x	x	-4.1%	0.4%
COc1ccc2c(CC(=O)Nc3ccc(N4CCOCC4)cc3)coc2c1	3.3	-10.9%	-7.5%	0.6%
CC(=NNC(=S)N1CCCCC1)c1cccc(C)n1	x	x	-8.0%	0.5%
CC1Oc2ccccc2N(CC(=O)N2CCCc3ccccc32)C1=O (configuration not stated)	-4.1	-10.2%	6.6%	-0.9%
Cc1cc(NC(=O)c2ccc3c(c2)OCCO3)ccc1NC(=O)c1cc2ccccc2o1	-26.7	27.3%	10.6%	4.4%
Cc1ccc[n+](-c2nc3ccccc3nc2[N-]S(=O)(=O)c2ccccc2)c1	-12.3	6.8%	-12.8%	-1.9%
CC1=C(C(=O)OCc2ccccc2)C(c2cccc(Cl)c2Cl)NC(=O)N1CCCCCC(=O)O (configuration not stated)	x	-6.6%	-18.2%	-0.8%
Cc1ccc(S(=O)(=O)N2Cc3ccccc3CC2C(=O)Nc2ccc3c(c2)OCO3)cc1 (configuration not stated)	-5.1	-21.6%	0.6%	-0.3%
C[C@H](CO)N1C[C@H](C)[C@@H](CN(C)S(=O)(=O)c2cccs2)Oc2c(NC(=O)C3CC3)cccc2C1=O	x	x	-1.8%	-0.6%
CCOC(=O)c1c(C)nc(C)c(C(=O)OCC)c1-c1cccc(N)c1	6.7	14.5%	10.7%	-0.6%
Cc1occc1C(=O)Nc1ccc(OCc2ccccc2)cc1	3.6	-12.5%	-8.4%	-4.5%
CC(=O)Nc1ccc(OS(=O)(=O)c2c(C)cc(C)cc2C)cc1	x	-1.1%	13.5%	-1.5%
COCCNC(=O)NC12CC3(C)CC(C)(CC(C)(C3)C1)C2	-0.4	1.2%	1.4%	3.0%
c1ccc(COc2cccc(CN3CCN(c4ccccn4)CC3)c2)cc1	-0.8	12.0%	-3.2%	-1.9%
Cc1cc(NC(=O)COC(=O)CCNS(=O)(=O)c2c(Cl)cccc2Cl)no1	-5.1	0.3%	-8.6%	-1.6%
N/C(CC(=O)Nc1cc(C(F)(F)F)ccc1Cl)=N\O	-5.5	-3.2%	19.9%	4.9%
Oc1ccccc1C1=NCCNC(C(F)(F)C(F)F)=C1	-7.2	-1.5%	12.5%	-2.5%
Cc1ccc(C)c(OCC(=O)Nc2ccccc2C(=O)NC2CC2)c1	x	1.8%	-5.3%	-1.1%
CN(C)S(=O)(=O)c1ccc(NC(=O)CN2CCCC2c2ccc3c(c2)OCCCO3)cc1 (configuration not stated)	x	x	27.0%	0.5%
CCCCCCCCCn1c2c(c(=N)c3c1CCC3)CCC2	-2.8	u	-6.8%	2.9%
SMILES	GLA inh pH 4.5	miR-21 reporter	Rango release inh	Rango-impB inh
O=C(COC(=O)c1ccc(F)c(S(=O)(=O)N2CCOCC2)c1)NCc1ccc(Cl)cc1	x	x	23.8%	-0.2%
CCCCn1c(N)c(N(CC(C)C)C(=O)c2ccc(-c3ccc(C(C)=O)cc3)o2)c(=O)[nH]c1=O	x	x	-20.6%	u
CC(C)Cc1ccccc1S(N)(=O)=O	x	-1.1%	9.1%	-3.0%
COc1ccccc1-c1nnc(SCc2ccccn2)n1C	0.6	-0.7%	1.9%	-5.6%
CC(C)(C)c1ccc(Oc2ccc(NC(=O)C3CC=CCC3C(=O)O)cc2)cc1 (configuration not stated)	-12.1	19.1%	-20.4%	-0.1%
COc1ccc(-n2ccnc(SCC(=O)NC3CCCCC3)c2=O)cc1	x	4.2%	2.8%	-3.6%
Fc1ccc(C2CCCN2Cc2nc(-c3cnccn3)no2)cc1 (configuration not stated)	1.1	-0.9%	0.9%	0.2%
CCOC(=O)c1c(C)[nH]c2cc(Br)c(O)cc12	5.3	-66.6%	2.5%	-3.1%
Cc1c(C(=O)NCCc2ccc(S(N)(=O)=O)cc2)cccc1[N+](=O)[O-]	5.3	-9.5%	-2.8%	-1.5%
Cc1ccc(-n2c(=S)[nH]c3[nH]ncc3c2=O)cc1	-4.3	-9.6%	-12.2%	-6.0%
CC(=O)NN1C(=O)/C(=C\c2ccc(Cl)cc2)SC1=S	-4.4	-0.7%	0.5%	-1.6%
CCN(C(=O)COC(=O)C1CCN(S(=O)(=O)c2ccc3c(c2)OCCO3)CC1)C1CCCCC1	x	x	11.3%	-1.1%
CCn1c(O)c(/C=N/N=C/c2ccc(OC)cc2)c2cc(C3=NNC(=O)CC3)ccc21	-9.4	-8.6%	u	u
CN1CCN(S(=O)(=O)c2cccc3nsnc23)CC1	x	0.0%	9.2%	1.1%
CCC(C)NC(=O)c1ccc(NC(=O)C2CCCO2)cc1 (configuration not stated)	-7.3	-11.5%	-4.1%	0.0%
Cc1nc(C)c(Oc2ccc(Cl)cc2Cl)c(=O)[nH]1	-2.7	-0.7%	-13.6%	-1.8%
CNC(=O)CSc1nnc(COc2ccc(Cl)cc2)n1CCOC	-1.0	-10.3%	-0.9%	3.4%
NC(=O)NC(=O)COC(=O)c1cccc(NS(=O)(=O)/C=C/c2ccccc2)c1	8.1	-6.6%	0.7%	-0.2%
Cc1cc(C)c(S(=O)(=O)N2CCOCC2)cc1NS(=O)(=O)c1cc(OCC(N)=O)c(C)cc1Cl	9.5	-0.4%	0.0%	-0.6%
CNC(=S)N/N=C/C1=CCC2CC1C2(C)C (configuration not stated)	8.7	2.5%	-6.3%	-0.9%
CCOc1ncccc1C(=O)OCC(=O)Nc1ncc(C(F)(F)F)cc1Cl	-11.4	-8.2%	0.9%	0.0%
CC1Cc2ccccc2N1C(=O)CCn1c(=O)oc2ccccc21 (configuration not stated)	-1.6	-10.5%	-21.6%	-0.5%
Cc1cc(C)nc(NS(=O)(=O)c2ccc(NC(=O)c3snnc3C)cc2)n1	x	-6.3%	0.2%	7.9%
CN1CCN(C2=Cc3ccccc3Sc3cc(F)c(Cl)cc32)CC1	-12.5	-1.8%	0.2%	4.4%
CCn1c(O)c(/C=C2\C=Nc3ccccc32)sc1=O	3.0	-64.5%	-6.6%	-4.7%
SMILES	GLA inh pH 4.5	miR-21 reporter	Rango release inh	Rango-impB inh
CCCNC(=O)c1ccc(-c2nc3ccccc3s2)s1	11.3	6.2%	u	u
COc1ccc(OC)c(NC(=O)c2nnn(CCc3ccccc3)c2N)c1	2.6	-8.9%	-3.0%	-1.0%
CC(Oc1ccccc1)C(=O)N1CCN(c2ccc(N3CCOCC3)nn2)CC1 (configuration not stated)	x	x	-6.1%	u
CN(CCN1CCc2ccccc2C1)Cc1nc(-c2ccc3c(c2)OCO3)no1	-9.9	-3.5%	0.2%	6.5%
CC(C)C1N=C2c3ccccc3N=C(SCc3cc(=O)n4cc(Cl)ccc4n3)N2C1=O (configuration not stated)	-6.1	-28.1%	-17.1%	5.9%
O=c1c2c3nc4ccccc4nc3n(/N=C/c3ccncc3)c2ncn1-c1ccccc1	-3.6	6.2%	-0.5%	1.3%
CCc1ccc(C2C(C#N)=C(N)Oc3n[nH]c(CC(=O)OC)c32)cc1 (configuration not stated)	-6.5	-5.7%	-4.7%	-2.4%
O=[N+]([O-])c1ccc2c(c1N1CCCCC1)=NC1(CCCCC1)[N+]=2[O-]	-5.0	1.0%	3.2%	-0.8%
COc1ccc(S(=O)(=O)Nc2cc3c4c(c2)CCN4C(=O)CC3)cc1C	x	x	14.3%	-0.7%
O=C(c1ccccc1)c1cn[nH]c1-c1ccccc1O	-1.9	-18.3%	-5.6%	3.5%
COCCNC(=O)c1ccccc1NC(=O)C1COc2ccccc2O1 (configuration not stated)	13.3	-7.1%	-5.7%	-1.2%
CCN(CC)C(=O)N1CCN(S(=O)(=O)c2c(C)cc(C)cc2C)CC1	4.8	-5.0%	3.3%	-1.2%
CCOCC(=O)Nc1nnc(Cc2ccc(OC)c(OC)c2)s1	7.5	0.1%	0.1%	2.2%
CC(C)c1ccccc1NC1=CC(=O)CC(C)(C)C1	-1.8	-3.0%	-2.2%	2.6%
COc1ccccc1N1CCN(Cc2ccsc2)CC1	-9.3	-8.2%	-4.2%	1.2%
COc1ccc(SC[C@H](Cc2ccccc2)N2CCN(CCc3ccccc3)CCC2=O)cc1	-2.6	u	28.9%	3.9%
C=CCN=C1N[C@@H](c2ccccc2)C(C(=O)OC)=C(C)N1CC	x	-2.3%&0.3%	3.5%	-1.0%
COc1ccc(NC(=O)NCCN2C(=O)C3C4C=CC(C4)C3C2=O)cc1 (configuration not stated)	2.8	-51.7%	-21.5%	u
COc1cccc(-c2nc(SC)nc3sc(C(=O)NC(C)(C)C)c(N)c23)c1	x	x	u	u
CCc1csc(CCNC(=O)C2CCC(=O)N(Cc3ccccc3F)C2)n1 (configuration not stated)	x	-5.2%	-3.2%	-2.2%
C=CCn1c(SCC(=O)N2CCCC2)nc2cc(C(=O)NCC3CCCO3)ccc2c1=O (configuration not stated)	10.2	-2.6%	-5.8%	2.7%
CC(=O)c1c(C)[nH]c(C(=O)Nc2cccc(C(F)(F)F)c2)c1C	x	2.6%	-6.2%	-2.5%
COC(=O)c1ccc(Cn2nnc3c(=O)[nH]c(C4CCCN(S(=O)(=O)c5ccccc5Cl)C4)nc32)cc1 (configuration not stated)	x	-6.2%&-2.9%	7.7%	-4.1%
CCn1c(SCc2nc3ccccc3c(=O)[nH]2)nnc1-c1cccnc1	-10.2	-7.0%	4.6%	-4.1%
CCO/C=N/Nc1nc(C(F)(F)F)nc2c1cnn2Cc1ccccc1	x	6.7%	-18.0%	1.1%
SMILES	GLA inh pH 4.5	miR-21 reporter	Rango release inh	Rango-impB inh
C/C(CC(=O)Nc1cccc(Br)c1)=N\NC(=O)c1ccc(O)cc1O	x	-20.5%	15.3%	-0.8%
CC(=O)Nc1ccc2nc(NC(=O)CCc3ccccc3)sc2c1	6.6	-0.1%	24.1%	0.7%
COc1ccc(-n2nnnc2SC(C)C(=O)NCC(=O)Nc2ccc(F)c(F)c2F)cc1 (configuration not stated)	-3.9	0.0%	3.0%	0.5%
Cc1ccnc2nc(C(=O)Nc3ccc(N4CCOCC4)cc3)nn12	-3.9	-34.6%	23.8%	-3.6%
CC1=CC(C)(C)N(C(=O)CCl)c2cc(C)ccc21	1.8	10.1%	-2.0%	0.2%
O=C(COCc1cc(-c2ccc3c(c2)OCO3)on1)N1CCN(c2ccc(F)cc2)CC1	x	-4.9%	0.3%	-0.3%
CC(C)NCC(O)COc1ccc(CC(N)=O)cc1 (configuration not stated)	-0.7&-3.8&4.3	-4.7%	-4.3%	-0.3%
Cc1cc(C)c(S(=O)(=O)Nc2ncn[nH]2)cc1C	x	8.8%	-4.9%	-0.1%
COc1ccc(CC(=O)OCC(=O)Nc2ccc(Cl)cc2C)cc1	x	x	4.1%	0.5%
CN(CC(=O)Nc1ccccc1Br)C(=O)c1ccc(COc2ccccc2)cc1	x	-14.2%	2.9%	-0.4%
Nn1c(SCc2ccccc2)nnc1C1CCCCC1	2.7	-35.7%	12.8%	-2.4%
CN1CCN(c2ccc(S(=O)(=O)N3CCCCC3)cc2NC(=O)c2ccc(F)cc2F)CC1	-16.0	-13.3%	4.7%	0.9%
CCN(CC)CCNC(=O)c1ccc2c(c1NCCO)C(=O)c1ccccc1C2=O	4.4	u	-1.4%	0.3%
S=c1[nH]nc(Nc2cccc3ccccc23)s1	-4.5	-36.4%	-2.5%	-0.3%
